# Bioassay records as filed in PubChem.
# HSD17B inhib: HSD17B dehydrogenase inhibition | Q99714 | recombinant HSD17B10, NADH fluorescence kinetic; many of its hits are not listed in these tables | Potency, µM (series often up to 57.1 µM), for inactives: top-dose activity change, negative = inhibition, most hits filed as inhibitors | 75,000 compounds, 7.6% hits | AID 893; active = well fitted inhibition curve with a large enough effect; inconclusive = small, poorly fitted or top-dose-only effect; inactive = no such curve, though single readings can be large or run the other way;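 note: the protocol describes HADH2 (HSD17B10) and not the HSD17B4 of the title; nearly all actives have a fitted effect of over 70% in size; most hits overshoot -100% by far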
#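 Activity followed as NADH fluorescence increase (ex 360, em 450 nm) every 30 seconds for 4 min, using final 90 uM beta-hydroxybutyryl CoA and 1 mM NAD+. Recombinant His-tagged enzyme, 20 nM, pH 9.0 Tris buffer, 15 min compound preincubation.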
# Active calls of the source: *; ? = inconclusive; & = joins results of further samples; [ ] = another dose, or the depositor's remark. % is set by controls: 0 for no effect and ±100 for the full control effect; potency is the fitted concentration of half-maximal effect. A portion of the library; count on the stated rates, not on these rows.
item	Structure	HSD17B inhib
1	O=C1c2ccccc2C(=O)N1CCCCN1CCN(CCCCN2C(=O)c3ccccc3C2=O)CC1	-7%
2	C=CCN(C(=O)Nc1ccc(Cl)cc1)C1CC(=O)N(c2ccc(OC)cc2)C1=O (stereo unspecified)	-1%
3	Cc1cccc2cc(CN(CCCO)C(=O)Nc3ccc(Cl)cc3)c(=O)[nH]c12	-28%
4	COc1cc(C(=O)Nc2cccc(-c3nncn3C)c2)cc(OC)c1OC	4%
5	CCCCC(=O)Nc1ccc(C(=O)N2CCCC(C(=O)OCC)C2)cc1 (stereo unspecified)	-7%
6	COc1cc(NS(=O)(=O)c2ccc(NC(=O)c3ccc(C)o3)cc2)nc(OC)n1	-6%
7	CC(OC(=O)c1cccs1)C(=O)NCc1ccccc1 (stereo unspecified)	6%
8	Cc1ccc2[nH]c(=O)c3cc(C(=O)N(C)Cc4ccco4)sc3c2c1	32µM*
9	Cc1cc(NC(=O)c2noc3c2CCc2ccccc2-3)n(-c2ccccc2)n1	?
10	O=C(c1ccncc1)N1CCC[C@@]2(CCN(c3ccccc3)C2)C1	2%
11	COc1ccc(S(=O)(=O)N2CCC(C(=O)N3CCc4ccccc4C3)CC2)cc1OC	-14%
12	Cc1ccc(OCC(=O)NCCO)cc1C	6%
13	Cc1ccc(C(=O)NCc2nnc(SCC(=O)Nc3sc4c(c3C#N)CCCC4)n2C)cc1	-7%
14	CC(=O)O[C@H]1CC[C@@]2(C)[C@@H](CC[C@H]3[C@H]2CC(=O)[C@@]2(C)[C@@H]3C[C@H]3CC(C)=CC(=O)[C@H]32)C1	12%[11.4 µM]
15	O=C(O)c1cn[nH]c1-n1cnnn1	13%
16	COc1ccc(NC(=O)c2ccc(OC)cc2)cc1	-3%
17	CCc1nn2c(=O)cc(N3CCN(c4cc(C)nc5ccccc45)CC3)nc2s1	12%
18	O=C(c1cccs1)N(Cc1cccc(Cl)c1)C1CCS(=O)(=O)C1 (stereo unspecified)	9%
19	CC(=O)c1cc2ccccc2oc1=O	-8%[25.6 µM]
20	OCCCNCc1ccccn1	-1%[11.4 µM]

# Some of these compounds in order of SMILES length, high to low.
item	Structure	HSD17B inhib
13	Cc1ccc(C(=O)NCc2nnc(SCC(=O)Nc3sc4c(c3C#N)CCCC4)n2C)cc1	-7%
18	O=C(c1cccs1)N(Cc1cccc(Cl)c1)C1CCS(=O)(=O)C1 (stereo unspecified)	9%
16	COc1ccc(NC(=O)c2ccc(OC)cc2)cc1	-3%
15	O=C(O)c1cn[nH]c1-n1cnnn1	13%
12	Cc1ccc(OCC(=O)NCCO)cc1C	6%
19	CC(=O)c1cc2ccccc2oc1=O	-8%[25.6 µM]
20	OCCCNCc1ccccn1	-1%[11.4 µM]

# Three of these compounds, reformatted.
18) O=C(c1cccs1)N(Cc1cccc(Cl)c1)C1CCS(=O)(=O)C1 (stereo unspecified)
  HSD17B inhib: 9%

19) CC(=O)c1cc2ccccc2oc1=O
  HSD17B inhib: -8%[25.6 µM]

20) OCCCNCc1ccccn1
  HSD17B inhib: -1%[11.4 µM]

# New compounds follow.
item	Structure	HSD17B inhib
21	CC(C)Cc1cc(-c2ccco2)c(C#N)c(N)n1	3.2µM*
22	O=C1CCCCC1	-1%
23	Cc1ccc(C(C)C)c(OCCN)c1	-4%
24	CCOC(=O)c1cc(C)n(Cc2ccccc2)c1C	-3%
25	O=C(Nc1cccc(Cl)c1Cl)C1CCN(c2ncccn2)CC1	1%
26	O=C(CCn1cccc1)N1CCc2ccccc21	3%
27	Cc1cccc(-c2nc(CS(=O)CC(=O)N3CCN(C)CC3)c(C)o2)c1 (stereo unspecified)	0%
28	CCOC(=O)OC(C)OC(=O)C1N2C(=O)C(NC(=O)C(N)c3ccccc3)C2SC1(C)C (stereo unspecified)	-20%
29	O=C(CSc1nnc(-c2cnccn2)n1Cc1ccco1)c1ccccc1	0%
30	Cc1ccc(S(=O)(=O)n2nc(C)c(Br)c2C)c(C)c1C	-10%
31	COC(=O)c1cccc(N2C(=O)c3cccnc3C2=O)c1	5%
32	CCN1CCn2c1nc(N1CCOCC1)nc2=O	5%
33	COc1ccc(OC)c(NC(=O)CSCc2cnn(-c3ccccc3)c2-n2cccc2)c1	-4%
34	COc1cccc(S(=O)(=O)NCc2ccc(C(=O)NCC3CCCO3)cc2)c1 (stereo unspecified)	2%
35	O=C(CC1NCCNC1=O)Nc1ccc(Oc2ccccc2)cc1 (stereo unspecified)	0%
36	C/C(=N/S(=O)(=O)c1ccc(Cl)c(Cl)c1)OCC(C)(C)C	3%[11.4 µM]
37	CC1(C)CC(=O)C(CC2=C(O)CC(C)(C)CC2=O)C(=O)C1	6%
38	O=S(=O)(c1ccc(N2CCCC2c2nc3ccccc3s2)nc1)N1CCOCC1 (stereo unspecified)	-9%
39	CCc1ccccc1Nc1ccc(C(=O)O)cc1N	-28%
40	O=C(O)CNC(=O)c1ccc2c(c1)OCCO2	-1%
41	Cn1c(=O)c2c(nc(NCc3ccccc3)n2C)n(C)c1=O	-1%
42	CCOc1ccc(NC(=O)C2CC(=O)N3CCCN=C3S2)cc1 (stereo unspecified)	-7%
43	Nc1ccc(N=Nc2ccc(-c3ccc(O)cc3)cc2)c2ccc(S(=O)(=O)O)cc12	3.2µM*
44	CCOC(=O)C1=C(C)NC(=O)C(C#N)C1c1ccco1 (stereo unspecified)	22%
45	C#CCCCO/N=C1/C[C@@H](O)[C@@H](O)[C@@H]2[C@@H]3C(=O)N(Cc4ccccc4)C(=O)[C@H]3CC[C@H]12	0%[11.4 µM]
46	C=CCN1C(=O)CS/C1=N/c1nccs1	5%
47	CSc1ccc(/C=N/n2c(C)cc(C)cc2=O)cc1	0%
48	COC(=O)[C@H]1C[C@@H]2CC[C@@H](O)C[C@@H]2N1Cc1c(F)cccc1Cl	5%
49	COCCOC(=O)c1c(C)oc2ccc(OC(=O)c3cccs3)cc12	-14%
50	CN1CCN(CCP(=O)(c2ccccc2)c2ccccc2)CC1	-6%
51	COc1cccc(N=C2SC(C(=O)Nc3ccc(F)cc3)CC(=O)N2C)c1 (stereo unspecified)	-3%
52	Cc1cc(O)c(NC(=O)c2ccc(Br)o2)cc1C	14%
53	COC(=O)Nc1ccc(S(=O)(=O)N(CCO)CC(F)(F)C(F)F)cc1	-8%
54	CN1C[C@H](c2ccccc2)C(O)([C@]2(c3ccccc3)CN(C)C[C@@H](c3ccccc3)C2=O)[C@H](c2ccccc2)C1 (stereo partly specified)	6%[11.4 µM]
55	COc1ccc(C(=O)Nc2nc3ccccc3[nH]2)cc1OC	-5%
56	COC(=O)C(C)Sc1nnc(Cc2cc(=O)[nH]c(=O)[nH]2)n1-c1cc(C)ccc1C (stereo unspecified)	7%
57	CN=C(N)NCCC[C@H](N)C(=O)O	-1%&6%
58	CC(=O)N1CCC2(CC1)CN(C(c1ccccc1)c1ccccc1)C2	7%
59	Cn1c(=NC(=O)CN2C(=O)C3CC=CCC3C2=O)sc2ccccc21 (stereo unspecified)	1%
60	COc1cc(C2C(C(=O)N3CCOCC3)=C(C)NC3=C2C(=O)CCC3)ccc1OC(C)=O (stereo unspecified)	32µM*
61	Cc1cccc(CC(=O)Nc2c3c(nn2-c2cccc(Cl)c2)CS(=O)C3)c1 (stereo unspecified)	0%
62	Cc1noc(C)c1COC(=O)c1ccc2ccccc2n1	-1%
63	N[C@H](C(=O)O)[C@@H](O)c1cnc[nH]1	4%[11.4 µM]
64	Cc1cc(C)c2cc(CN(Cc3ccco3)C(=O)NCc3ccccc3)c(=O)[nH]c2c1	?
65	Cc1nc(C)c(C(=O)OCC(=O)N2CCN(c3ccccc3)CC2)s1	5%
66	Cc1cc(NC2CCCCC2)nc(N2CCOCC2)n1	13%
67	O=C(CCCn1c(=S)[nH]c2ccccc2c1=O)N1CCCCC1	-2%
68	CCOC(=O)c1ccc(N2Cc3ccccc3C2)cc1O	-21%
69	O=C(Cc1ccc(Cl)cc1)Nc1ccccc1CO	7%
70	O=C(O)CP(=O)(O)O	9%[11.4 µM]

# The list continues.
item	Structure	HSD17B inhib
71	O=C(c1ccncc1)N1CCC2(CC1)CN(c1ccc(-c3ccccc3)cc1)C2	-12%
72	CCC(Sc1nnnn1-c1ccccc1)C(=O)Nc1nc2ccccc2s1 (stereo unspecified)	-11%
73	Cc1cc(C(=O)COC(=O)Cn2cnc3c2c(=O)n(C)c(=O)n3C)c(C)n1C	2%
74	CCOC(=O)C(C)Sc1ncnc2c1nnn2-c1ccc(F)cc1 (stereo unspecified)	-2%
75	O=C(CN(Cc1ccco1)C(=O)c1cc(=O)[nH]c2ccccc12)Nc1ccccc1Br	-28%
76	CCC(Sc1nnnn1-c1ccccc1)C(=O)NC(C)c1ccccc1 (stereo unspecified)	3%
77	COc1ccc(-c2ccc3c(n2)CCCN3C[C@H](O)CN2CCCc3nc(C)c(C)cc32)cc1	?
78	Cc1cccc(OCc2nnc(SCc3cc(=O)n4cc(Br)ccc4n3)o2)c1	-20%
79	COC(=O)[C@@H]1C[C@@]2(O)[C@H](O)[C@H](O)[C@H](O)C[C@H]2N1Cc1ccc(N2CCN(C)CC2)cc1	-23%
80	COc1ccc(-c2noc(-c3ccccc3F)n2)cc1	5%
81	Cc1cc(NC(=O)c2ccc3nc(-c4ccccc4)c(-c4ccccc4)nc3c2)no1	2%
82	O=C(Cc1cccs1)Nc1nnc(SCC(=O)N2CCCCC2)s1	15%
83	O=C(CCCCCN1C(=O)c2ccccc2C1=O)Nc1ccc(S(=O)(=O)N2CCCCC2)cc1	-6%
84	CCCCN(C)C(=O)c1ccc(CS(=O)(=O)c2ccccc2C)o1	-3%
85	CSCCC(NS(=O)(=O)c1ccc(Cl)cc1)C(=O)OCC(=O)N1CCOCC1 (stereo unspecified)	9%
86	O=C(c1ccccc1S(=O)(=O)NCc1ccccc1)N1CCCCC1	4%
87	CCNC(=O)C1CCN(S(=O)(=O)c2ccc(F)cc2)CC1	2%
88	CCN(CC)CCCN(C(C)=O)c1nc(-c2cc(OC)ccc2OC)cs1	-7%
89	O=C(NC1CCCCCC1)C1CCCN(S(=O)(=O)c2cccs2)C1 (stereo unspecified)	0%
90	Cn1c(=O)cc(OCCCC(=O)N2CCCCC2)c2ccccc21	1%
91	CC(=O)c1cc2c(cc1NC(=O)CSc1nnc(C)s1)OCO2	3.2µM*
92	Fc1ccc(-c2nc3nc4ccccc4nc3n2Cc2ccco2)cc1	?
93	O=C(c1ccncc1)N1CCC[C@@]2(CCN(Cc3ccncc3)C2)C1	0%
94	CCOC(=O)N1CCN(CCC(=O)Nc2ccc(OC(F)(F)F)cc2)CC1	-5%
95	Cn1c(=O)oc2cc(S(=O)(=O)N3CCc4ccccc4C3)ccc21	6%
96	O=C(Nc1ccc(Cl)cc1)N(Cc1cccs1)Cc1cccs1	1%
97	CC1CCCCN1CCNC(=O)C1CCN(S(=O)(=O)c2cccc3cccnc23)CC1 (stereo unspecified)	5%
98	COC(=O)Nc1ccc2c(c1)N(C(=O)CCN1CCN3CCCC3C1)c1ccccc1CC2 (stereo unspecified)	9%
99	CCC(=O)Nc1nc2ccccc2n1Cc1ccc(C)cc1	12%
100	O=C(c1cccc(F)c1)N1C2C=CC(C2)C1(C(F)(F)F)C(F)(F)F (stereo unspecified)	-6%
101	CCOC(=O)C1CCN(CC(O)COc2ccc(C(C)(C)CC)cc2)CC1 (stereo unspecified)	-10%
102	CCOc1cc(C(N)=O)cc(OCC)c1OCC	8%
103	Cc1ccc2c(c1)c(C)c(C)n2CC(O)Cn1nc(C)c(Br)c1C (stereo unspecified)	?
104	Cc1noc(C)c1-c1cc(Nc2ccc(F)cc2)ncn1	-5%
105	Cc1oc2c(C)c3oc(=O)c4c(c3cc2c1C)CCC4	2%
106	CCCN1/C(=C(/C#N)C2=NS(=O)(=O)c3ccccc32)N(C)c2ccccc21	-3%
107	CC(C)OC(=O)CSc1ncnc2c1cnn2Cc1ccccc1	?
108	COc1ccc(NC(=O)c2ccccc2C)c(OC)c1	-1%
109	Cc1ccccc1CN1CCCNC1=O	6%
110	CCCSC1=C(C#N)C(c2ccccc2C)CC(=O)N1 (stereo unspecified)	-7%
111	CN1CCN([C@@H](c2ccccc2)c2ccc(Cl)cc2)CC1	3%[25.6 µM]
112	Cc1ccc(NC(=O)COC(=O)C2CC2C)c(S(=O)(=O)N2CCCCC2)c1 (stereo unspecified)	0%
113	COc1cc2c(cc1NC(=O)c1cccnc1)CCCC2	-4%
114	O=C(CN1CCC(C(=O)c2ccc(F)cc2)CC1)Nc1ccccc1	10%
115	O=S(=O)(c1cccs1)N1CCc2ccccc21	-4%
116	NC1=N[C@H](c2ccc(Cl)cc2)N(c2ccc(S(=O)(=O)Nc3ncccn3)cc2)C(N)=N1	8%[11.4 µM]
117	COc1ccc(NC(=O)CN2CCN(CC(=O)Nc3ccccc3Cl)CC2)cc1	8%
118	COc1ccc(-n2c(CNC(=O)c3cc(OC)c(OC)c(OC)c3)n[nH]c2=S)cc1	-7%
119	COc1ccc(-c2coc3cc(O)ccc3c2=O)cc1	40µM*
120	COc1ccc(OC)c(C2=NOC(C(=O)Nc3c(C)n(C)n(-c4ccccc4)c3=O)C2)c1 (stereo unspecified)	?

# (next part)
item	Structure	HSD17B inhib
121	Cc1ccc(Nc2cc(=O)n(C3CCCCC3)c(=O)[nH]2)cc1C	1%
122	COc1cc2nc(C3CCC3)n(NC(=O)COc3ccccc3)c(=O)c2cc1OC	6%
123	O=C(Nc1nnc(C2CCCCC2)s1)c1ccco1	6%
124	O=C(CC1OC(=O)c2ccccc21)c1ccco1 (stereo unspecified)	-13%
125	Cc1nonc1NC(=O)OC1CCCCC1	7%
